hNpr1 antagonist: Natriuretic polypeptide receptor (hNpr1) antagonism - Primary qHTS | Potency, µM (series often up to 46.3 µM), for the others: top-dose activity change, negative = inhibition, actives largely listed as inhibitors | AID 1347048, 2019 | HEK293 hNpr1 GloSensor cGMP, ANP-stimulated luminescence | hit rate 1.6% among 76,000; active = well fitted inhibition curve with a large enough effect; inconclusive = small, poorly fitted or top-dose-only effect; inactive = no such curve, though single readings can be large or run the other way;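 further: nearly all actives have a fitted effect of over 60% in size; nearly all hits also lower the signal before the agonist is added; a reference antagonist and vehicle were the controls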
Target sequence (P16066 whole entry, looked up): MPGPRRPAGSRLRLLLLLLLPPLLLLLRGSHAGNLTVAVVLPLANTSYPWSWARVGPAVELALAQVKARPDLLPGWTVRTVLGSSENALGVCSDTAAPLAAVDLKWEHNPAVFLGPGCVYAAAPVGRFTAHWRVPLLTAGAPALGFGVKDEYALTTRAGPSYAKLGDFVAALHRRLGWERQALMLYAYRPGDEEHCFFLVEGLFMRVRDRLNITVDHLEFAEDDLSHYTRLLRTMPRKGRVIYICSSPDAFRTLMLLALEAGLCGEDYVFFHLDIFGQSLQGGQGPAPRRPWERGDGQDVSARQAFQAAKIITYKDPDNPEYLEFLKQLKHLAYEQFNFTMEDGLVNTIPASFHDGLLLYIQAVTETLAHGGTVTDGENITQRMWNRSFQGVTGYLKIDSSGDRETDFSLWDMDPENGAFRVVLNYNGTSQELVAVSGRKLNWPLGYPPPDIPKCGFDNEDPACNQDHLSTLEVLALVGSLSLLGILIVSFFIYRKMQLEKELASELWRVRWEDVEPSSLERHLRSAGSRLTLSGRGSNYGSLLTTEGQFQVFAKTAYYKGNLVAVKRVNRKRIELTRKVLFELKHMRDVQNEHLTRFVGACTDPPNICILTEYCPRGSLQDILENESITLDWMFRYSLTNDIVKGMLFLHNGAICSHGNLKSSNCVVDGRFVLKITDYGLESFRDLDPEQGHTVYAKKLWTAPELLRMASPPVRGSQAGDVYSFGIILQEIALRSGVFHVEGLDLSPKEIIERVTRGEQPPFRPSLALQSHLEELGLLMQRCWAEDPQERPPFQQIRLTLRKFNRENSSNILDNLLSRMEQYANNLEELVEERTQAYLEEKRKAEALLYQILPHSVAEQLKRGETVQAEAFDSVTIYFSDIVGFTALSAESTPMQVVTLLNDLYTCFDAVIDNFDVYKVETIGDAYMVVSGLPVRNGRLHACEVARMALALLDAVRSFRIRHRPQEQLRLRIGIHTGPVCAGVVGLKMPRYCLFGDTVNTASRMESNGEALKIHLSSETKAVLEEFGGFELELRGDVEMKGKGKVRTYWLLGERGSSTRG
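HEK293 cells stably expressing human Npr1 and cGMP GloSensor pGS-40F, loaded 2 h with 2% GloSensor reagent, given compound 30 min at room temperature. Luminescence read before and 20 min after 0.1 nM hNppA.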
The depositor's hits bear a star; ? = inconclusive; [ ] = dose if it differs, or a comment. On the % scale 0 is the no-effect control and ±100 the full control effect; potency means the concentration at half of the fitted maximal effect.

hNpr1 antagonist	molecule
-4%	O=C(CC1CCCC1)N1CCC(Cc2nncn2Cc2ccccc2)C1 (configuration not stated)
1%	COc1ccc(C(NC(=O)c2cccc(-n3cnnc3)n2)C2CC(O)C2)cn1 (configuration not stated)
-11%	COc1ccc(CN2C(=O)COC[C@H]2C(=O)NCc2cccc(OC)c2OC)cc1
0%	CC(C)OCCCNC(=O)COc1ccc(NC(=O)C2CC2)cn1
0%	COCc1cc(=O)n(CC(=O)Nc2cc(OC)c(OC)c(OC)c2)c(N2CCOCC2)n1
?	CC1(COCC2CC2)COc2ccc(C(=O)Nc3ccc4[nH]ccc4c3)cc2N1 (configuration not stated)
-11%	O=c1[nH]c(C2CCCN(Cc3ccsc3)C2)nn1-c1ccc(Cl)cc1 (configuration not stated)
3%	CC(C)Nc1ncc(C(=O)NC2CC(=O)N(Cc3cccc(F)c3)C2)cn1 (configuration not stated)
2%	O=C1CCCCC(C(=O)O)N1 (configuration not stated)
0%	CCn1nc(C)c(-c2cc(C(=O)NCCc3noc(-c4ccccc4)n3)no2)c1C
8%[70.6 µM]	CC(C)CNC1(Cc2cc(CN3CCOCC3)on2)COC1
6%	Cc1ccsc1C(=O)N1CCC(N2C[C@H](O)C[C@H]2C(=O)NCc2cccnc2)CC1
0%	COCC(=O)N1CCC(O)(c2ccccc2)[C@H](N2CCCC2)C1 (some centres not stated)
1%[70.6 µM]	Cn1ccc(Nc2nccc3c(=O)cc(-c4ccccn4)oc23)n1
0%[70.6 µM]	O=C1CCCN1C1CCN(S(=O)(=O)c2ccccc2)CC1
3%	CCOCC(=O)N1CCC2(CC1)NCCc1c2[nH]c2ccc(OC)cc12
-1%	O=C(Nc1ccc(I)cc1)c1cc(-c2ccc[nH]2)n[nH]1
-1%	NCCn1cc(C(=O)NCC(O)c2ccccc2C(F)(F)F)nn1 (configuration not stated)
-1%	COc1ccc(CNC(=O)Cn2c(-c3ccccc3)nc(C)c(CCO)c2=O)cc1
4%	CNC(=O)Nc1ccc(C)n(CC(=O)NCc2ccccc2C)c1=O
-16%	Cc1ccc(-c2cc3c(=O)n(CCNC(=O)Cc4ccccc4Cl)ccn3n2)cc1C
10%	CC(=O)N[C@H]1CN(S(=O)(=O)c2ccc(C)c(F)c2)C[C@@H]1C(C)C
2%	Cc1ccc(NC(=O)N2CCC3(CC2)SCC(=O)N3Cc2ccco2)cc1Cl
1%	Cc1ccsc1C(=O)N1CCc2nnc([C@@H]3C[C@@H](O)CN3C(C)C)n2CC1
6%	CC(C)CC(=O)N1CCC2(CC1)CC(C(=O)N1CCOCC1)N(C)C2 (configuration not stated)

Reprinted from the part before: 5 compounds; new compounds follow.
hNpr1 antagonist	molecule
-16%	Cc1ccc(-c2cc3c(=O)n(CCNC(=O)Cc4ccccc4Cl)ccn3n2)cc1C
10%	CC(=O)N[C@H]1CN(S(=O)(=O)c2ccc(C)c(F)c2)C[C@@H]1C(C)C
2%	Cc1ccc(NC(=O)N2CCC3(CC2)SCC(=O)N3Cc2ccco2)cc1Cl
1%	Cc1ccsc1C(=O)N1CCc2nnc([C@@H]3C[C@@H](O)CN3C(C)C)n2CC1
6%	CC(C)CC(=O)N1CCC2(CC1)CC(C(=O)N1CCOCC1)N(C)C2 (configuration not stated)
-20%	CN(Cc1ccco1)C(=O)Cc1cccn1-c1ccc(F)cc1
0%	CCCS(=O)(=O)N1C[C@@H](Oc2ccccc2)C[C@@H]1C(=O)N1CCOCC1
0%	COc1ccc(C(=O)N2CCN(c3cc(C(F)(F)F)ncn3)CC2)cc1
-13%[70.6 µM]	Cn1nc(OC(C)(C)C(=O)NCCc2ccccc2)c2cc(CN3CCCC3)ccc21
-18%	Cc1cccc(NC(=O)c2cc(-c3ccc[nH]3)n[nH]2)c1
?	O=C(Nc1ccc2ncnc(N3CCCCC3)c2c1)c1cccc(F)c1
?	O=C1COc2ccc(OCc3ccccc3)nc2CN1CCOc1ccccc1
-12%	COc1ccccc1CCC(=O)N1c2ccccc2CC1c1nc(C2CC2)no1 (configuration not stated)
3%	COCCn1ncc(N2CCCC(CC(=O)NCc3ccc(F)cc3)C2)cc1=O (configuration not stated)
1%	COCCN1CC2(CCCN(C(=O)c3cc(-c4ccsc4)n[nH]3)C2)CCC1=O (configuration not stated)
3%	Cn1nccc1C(=O)N1CCC2(CC1)OC(=O)N(Cc1ccccc1)C2(C)c1ccccc1 (configuration not stated)
-2%	O=S(=O)(c1cccnc1)N1CCC2(CC1)NCCc1c2[nH]c2ccccc12
0%	O=C(NC1C[C@H]2CC[C@@H](C1)N2C(=O)C1CCCCC1)c1ccncc1 (some centres not stated)
10%	Cc1cccc(NC(=O)CC2CCCCN(C)C2=O)c1 (configuration not stated)
1%	O=C(NC[C@H]1O[C@@H](CC(=O)N2CCN(c3ccccc3)CC2)[C@H](O)[C@@H]1O)c1ccccc1
-27%	O=C(Nc1cccc(C(F)(F)F)c1)N[C@H]1CO[C@H]2[C@@H]1OC[C@@H]2n1cc(-c2ccccc2)nn1
-2%	Cc1noc([C@@H]2CN(Cc3ccc(Cl)cc3F)C[C@H]2CO)n1
-2%	CC(C)OC(=O)c1ccc(NC(=O)Cn2nc3c(cc2=O)CCCCC3)cc1
-22%	Cc1nc2c(c(-c3ccc(O)cc3)n1)CN(Cc1ccc(OC(F)(F)F)cc1)CC2
-15%[70.6 µM]	O=C1c2cnc(-c3ccccc3)nc2OCCN1Cc1ccc(F)cc1F
-20%	CC(C)N1C[C@H](O)C[C@H]1c1nnc2n1CCN(C(=O)c1cnccn1)CC2
4%	Cc1noc([C@@H]2CC(F)(F)CN2C(=O)c2cc(C)on2)n1
1%[70.6 µM]	c1cc(-c2nnc([C@H]3CCN(CC4CC4)C3)o2)ccn1
-3%	COC(=O)C(NC(=O)N1CCC(c2cc(-c3cccc(OC)c3)n[nH]2)CC1)c1ccccc1 (configuration not stated)
-1%	Cc1ccc(C)c(NC(=O)Cn2nc3c(cc2=O)CCCCC3)c1

A few values from above.
hNpr1 antagonist, `Cn1nccc1C(=O)N1CCC2(CC1)OC(=O)N(Cc1ccccc1)C2(C)c1ccccc1` (configuration not stated) stands at 3%
hNpr1 antagonist, `CCCS(=O)(=O)N1C[C@@H](Oc2ccccc2)C[C@@H]1C(=O)N1CCOCC1` stands at 0%

Following part.
hNpr1 antagonist	molecule
-1%	CCOc1ccccc1N1CCN(Cc2ccc(=O)n(CC)c2)CC1
-10%	COc1ccc(-c2cc3nc4c(c(=O)n3[nH]2)CCN(C(=O)COc2ccccc2C)C4)cc1
-18%	Cc1ccc(NC(=O)Nc2ccc(C)n(CC(=O)N3CCC(C)CC3)c2=O)cc1
0%	COc1ccc(-c2ccccc2NC(=O)C2CCCN2S(C)(=O)=O)cc1 (configuration not stated)
2%[70.6 µM]	COc1ccc(-c2noc([C@H](C)O)c2C(=O)NC2CCC2)cc1
-3%	Cc1ccc(-c2nc(C(=O)NCc3cccc(C)c3)no2)cc1
1%	COc1cccc(-c2cc(C3CCN(C(=O)Nc4cccc(SC)c4)CC3)[nH]n2)c1
2%	Cc1cc(C)cc(C(=O)N2CC(c3nnc(-c4ccncc4)o3)C3(CCOCC3)C2)c1 (configuration not stated)
-27%	CC(Oc1ccccc1)C(=O)N1CC(Oc2cccc(-c3nc(-c4ccccc4)no3)c2)C1 (configuration not stated)
1%[70.6 µM]	COc1ncccc1-c1cnc2[nH]cc(CC(=O)NC3CCOCC3)c2c1
-12%	Cc1ccc(C(=O)N2CCCN(S(C)(=O)=O)c3ccccc32)cc1C
3%	Cc1noc(C)c1S(=O)(=O)N1CCC2(CC1)CC(N1CCN(C(C)C)CC1)CCO2 (configuration not stated)
-2%	CS(=O)(=O)N1CCCN(Cc2ccccn2)CCNC(=O)CC1c1ccccc1 (configuration not stated)
1%	CCc1ccc(N2CC(c3noc(-c4nccc5ccccc45)n3)CC2=O)cc1 (configuration not stated)
0%	O=[S+]([O-])(c1cccc(C(F)(F)F)c1)N1CCn2c(nnc2-c2ccccc2)C1
-12%	CCOc1ccccc1CN1CCC2(CCN(C(=O)C3CCCC3)CC2)Oc2ccccc21
0%	COc1cccc(CNC(=O)[C@@H]2C[C@@H](O)CN2C2CCN(C(=O)c3ccccc3)CC2)c1
-5%	O=C1c2cc(N3CCOCC3)nc(-c3ccccc3Oc3ccccc3)c2CN1C1COC1
?	Cc1ccc(C(=O)N2CCC3(CC2)N=C(c2cccc(Br)c2)NO3)cc1F
1%	COc1ccc(CNC(=O)C[C@@H]2C[C@H]3O[C@H](CNCc4ccccc4Cl)[C@@H](O)[C@H]3O2)cc1
0%	C=CCOc1cccc(-c2nc(C(=O)NCc3cccc(F)c3)cs2)c1
-11%	Cc1ccc(Cn2c(C3CCN(C(=O)c4cc(Cl)ccc4F)CC3)n[nH]c2=O)cc1
-6%	N#Cc1cccc(CN2CCCC(c3nc4ccc(F)cc4c(=O)[nH]3)C2)c1 (configuration not stated)
-13%	CCC[C@H]1CN(S(C)(=O)=O)C[C@@H]1NC(=O)CCc1cc(=O)[nH]o1
-11%	C=CCNC(=O)c1cccnc1N1CC2CC(C1)[C@H]1CCCC(=O)N1C2 (some centres not stated)

Reprinted at random: four compounds from above, in no set order.
hNpr1 antagonist	molecule
-12%	CCOc1ccccc1CN1CCC2(CCN(C(=O)C3CCCC3)CC2)Oc2ccccc21
2%	Cc1cc(C)cc(C(=O)N2CC(c3nnc(-c4ccncc4)o3)C3(CCOCC3)C2)c1 (configuration not stated)
-13%	CCC[C@H]1CN(S(C)(=O)=O)C[C@@H]1NC(=O)CCc1cc(=O)[nH]o1
-3%	Cc1ccc(-c2nc(C(=O)NCc3cccc(C)c3)no2)cc1

(further entries)
hNpr1 antagonist	molecule
-3%	CCn1ccc(C(=O)N2CC(c3nnc(-c4ccc(C)cc4)o3)C3(CCOCC3)C2)n1 (configuration not stated)
-2%	CCOc1ccc(C2Cn3nnc(-c4nc(-c5cccc(F)c5)no4)c3CO2)cc1 (configuration not stated)
-14%	COc1ccc(-c2cc(N3CCC(NC(=O)Cc4ccccc4C)CC3)n[nH]2)cc1
-25%	CCN(CC)C(=O)c1coc(COc2ccc3c(c2)C(c2ccc(C)cc2)N(C(=O)C2CC2)CC3)n1 (configuration not stated)
-22%	O=C(Nc1ccc2c(c1)OCCO2)N1CCC(Cc2nc(-c3ccncc3)n[nH]2)CC1
4%[70.6 µM]	CC1CCN(c2ncnc3c2CN(c2ccccc2)C(=O)N(C)C3)C1 (configuration not stated)
3%[70.6 µM]	O=C(NC[C@H]1OC[C@@H](NCc2ccccn2)[C@@H]1O)Nc1ccccc1
1%	O=C(Nc1cccc(F)c1)Nc1ccnn1C1CCN(C(=O)C2CCC2)CC1
-29%	O=C(NCC1Cn2cccc2C(=O)N1Cc1ccccc1)Nc1ccccc1F (configuration not stated)
2%[70.6 µM]	CN(c1ccccc1)c1cc(=O)c2ccnc(-c3ccncc3)c2o1
-1%	COc1cc(Cl)ccc1C(=O)N[C@@H]1C[C@H]2C(=O)N(C)CC(=O)N2C1
19%	Cc1noc(C)c1[S+](=O)([O-])N1CCCC2(C1)C(=NC1CCCC1)NC(=O)N2c1cc(F)cc(F)c1 (configuration not stated)
-1%	COc1ccc(CN(C)C2CCc3nn(C)c(=O)n3CC2)cc1Cn1cccn1 (configuration not stated)
7%	CCc1noc(-c2cccn3c(CNC(=O)c4ccccc4C)nnc23)n1
2%	COc1ccc(CCNC(=O)c2c(C)noc2-c2cccs2)cc1OC
-5%	CCOC(=O)c1cccc(NC(=O)c2c(C)oc3ccn(Cc4ccc(F)cc4)c(=O)c23)c1
-12%	COc1ccc(-c2cc(N3CCCN(C(=O)Cc4c(F)cccc4Cl)CC3)n[nH]2)cc1
4%	CN(C)CCNC(=O)C[C@@H]1O[C@H](CNS(=O)(=O)c2ccc(Cl)cc2)[C@@H](O)[C@H]1O
-4%	O=C(NCCN1CCCC1)c1cc2cn(C3CC3)cc2s1
-14%	Cc1noc(C)c1CCC(=O)N1CCCn2nc(C(O)CO)cc2C1 (configuration not stated)
-2%[70.6 µM]	CN(C)c1ccc2nnc(-c3cc(C(=O)NCc4ccccc4)ccn3)n2n1
-1%[70.6 µM]	CCC(=O)NC[C@H]1Cn2cc(-c3ccc(OC)cc3)nc2CO1
10%	CN1CCN(C(=O)c2ccccc2C2CCNC2)CC1 (configuration not stated)
-11%[70.6 µM]	COCCOc1cc(C)c2c(c1C)C[C@H](C(C)C(=O)N1CCCCC1)CC2 (some centres not stated)
-13%	CCCN1CCC2(CCN([S+](=O)([O-])c3ccc(C)cc3)CC2)Oc2ccccc21
-2%[70.6 µM]	O=C(c1ccccc1)N1CCOCC12CCN(Cc1ccc3[nH]ccc3c1)CC2
-1%	O=C(CN1CC2CC(C1)[C@H]1CCCC(=O)N1C2)N1CCCCC1 (some centres not stated)
-29%	O=C(C1COc2ccccc2O1)N1CCc2onc(-c3cccc(F)c3)c2C1 (configuration not stated)
?	CN(C)c1ccc(-c2noc([C@@H]3CCCN3CC3CCCCC3)n2)cn1
5%	CCOc1cc(=O)n2c(c1C(=O)NCc1cccc(OC)c1)CCCC2
0%	CC(=O)Nc1ccc(NC(=O)CN2C(=O)NC3(CCS(=O)(=O)CC3)C2=O)cc1
7%	CCNC(=O)CC1COc2ccc(C(=O)NCCOC)cc2N1C (configuration not stated)
-30%[70.6 µM]	COc1cccc(Nc2cc3c(cn2)CN(C(C)=O)CCN3)c1
3%	O=C1CCC2(CCN1)CCN(S(=O)(=O)c1cccnc1)CC2
6%[70.6 µM]	COC(=O)CN1C(=O)[C@@H]2C[C@@H](O)CN2C2(CN(Cc3ccccc3)C2)C1=O
?	O=C(NC1CC1)c1ccc(CC2CCN(C(=O)c3ccc4ccccc4n3)CC2)cc1
-2%	CCCN(CC1CCOC1)C(=O)Nc1ccc(Cl)cc1F (configuration not stated)

Assay outcomes deposited in PubChem by National Center for Advancing Translational Sciences (NCATS).

These rows are one share of the data, so the mix of outcomes need not match the whole.
